Screening data as filed in PubChem.
TSHR ag: qHTS Assay for Agonists of the Thyroid Stimulating Hormone Receptor; Potency, µM (highest dose often 57.1 µM), for the others: at the highest dose activation, most hits filed as activators; Thyrotropin receptor (Homo sapiens), P16473; 73,000 tested, 0.48% active; HEK293-CNG-TSHR cells (CNG channel as cAMP sensor), membrane potential dye, cAMP; active = well fitted activation curve of enough size with the parental cells flat; inconclusive = any curve in the parental cells; inactive = parental cells flat and receptor cells flat or falling; also: potency is read from the fitted curve at half-maximal effect; % of control where 0% means no effect; weak receptor curves with flat parental cells got no call and are not listed
Target sequence (P16473 whole entry, looked up): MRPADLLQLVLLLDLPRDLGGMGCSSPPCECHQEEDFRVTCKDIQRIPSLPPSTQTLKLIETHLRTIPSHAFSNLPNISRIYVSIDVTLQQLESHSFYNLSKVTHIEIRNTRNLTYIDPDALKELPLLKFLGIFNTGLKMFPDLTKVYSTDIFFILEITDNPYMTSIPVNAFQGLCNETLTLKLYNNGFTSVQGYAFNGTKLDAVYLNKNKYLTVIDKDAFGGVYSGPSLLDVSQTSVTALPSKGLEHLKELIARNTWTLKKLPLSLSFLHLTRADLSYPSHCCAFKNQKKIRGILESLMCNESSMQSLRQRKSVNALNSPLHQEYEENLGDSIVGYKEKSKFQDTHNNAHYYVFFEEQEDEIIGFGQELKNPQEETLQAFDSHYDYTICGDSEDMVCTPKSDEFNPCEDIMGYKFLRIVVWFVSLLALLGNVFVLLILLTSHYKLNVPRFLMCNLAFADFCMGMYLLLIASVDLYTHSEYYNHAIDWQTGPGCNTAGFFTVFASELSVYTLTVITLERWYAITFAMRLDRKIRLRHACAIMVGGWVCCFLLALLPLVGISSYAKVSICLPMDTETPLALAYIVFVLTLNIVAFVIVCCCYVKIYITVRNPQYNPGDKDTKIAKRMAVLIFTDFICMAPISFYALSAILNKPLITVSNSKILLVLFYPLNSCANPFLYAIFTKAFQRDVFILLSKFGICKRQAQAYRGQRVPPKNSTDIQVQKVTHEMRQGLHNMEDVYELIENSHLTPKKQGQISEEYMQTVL
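HEK 293 cells stably expressing TSHR and a cAMP-gated CNG channel; parental CNG-only cells as counterscreen. Cells preloaded 60 min with membrane potential dye plus 100 uM RO 20-1724, then compound 30 min; fluorescence read at 590 nm.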
AID923: qHTS Assay for Allosteric/Competitive Inhibitors of Caspase-1: Spectroscopic Profiling in AFC Spectral Region. 75,000 tested, 1.1% active. Potency, µM (doses to about 57.5 µM), for inactives: at the highest dose fluorescence increase, actives largely listed as activators. compound fluorescence, AFC spectral region (405/520 nm); almost no hit is shown here; active = well fitted activation curve with a large enough effect; inconclusive = small, poorly fitted or top-dose-only effect;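 also: potency is read from the fitted curve at half-maximal effect; 0% is about no effect; scaled to a free AFC standard on each plate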
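Compound autofluorescence profiled at 405 nm ex/520 nm em during kinetic caspase 1 run (50 nM enzyme, 5 uM Ac-WEHD-AFC, HEPES pH 7.5, 10 mM DTT). Titration up to 57 uM; baseline from regression intercept, normalized to AFC standard curve.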
A488 autofl: qHTS Assay for Spectroscopic Profiling in A488 Spectral Region; compound autofluorescence, A488 spectral region, dye equivalency; hits give high values; max dye equivalency, M; 59,000 tested, 0.1% active; AID 591, 2007; active = above 10 nM dye equivalent; inconclusive = 1 to 10 nM; inactive = 1 nM or less; about half of its hits are not listed in these tables;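 also: highest value over a series up to 38 µM; compound alone in buffer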
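Autofluorescence read at ex 480/em 540 nm after 15 min RT in 100 mM Tris pH 8.0; compound signal normalized to A488 standard series on each plate, reported as dye-equivalent concentration at each test concentration.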
Resorufin fluor: qHTS Assay for Spectroscopic Profiling in Resorufin Spectral Region; 59,000 tested, 0.04% active; max dye-equivalent concentration, M; Compound fluorescence, resorufin region 547/598 nm, buffer; hits give high values; active = above 10 nM dye equivalent; inconclusive = 1 to 10 nM; inactive = 1 nM or less; a few of its hits are not listed in these tables; also: highest value over a series up to 38 µM
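Compounds in 100 mM Tris, pH 8.0, incubated 15 min at room temperature, then fluorescence read at 547 nm excitation/598 nm emission. Signal converted to dye-equivalent concentration via an on-plate six-point resorufin standard curve, per compound concentration.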
A647 autofl: qHTS Assay for Spectroscopic Profiling in A647 Spectral Region | AID 592, 2007 | max dye-equivalent concentration, M | 59,000 tested, under 10 active | Compound fluorescence, A647 channel (570/671 nm), Tris buffer; active means above 1 µM dye equivalent; inconclusive means 0.1 to 1 µM; inactive means 0.1 µM or less;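 also: values scaled relative to a standard on each plate; highest value over a series up to 38 µM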
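Each compound's intrinsic fluorescence at 570 nm excitation and 671 nm emission is measured across its concentration series in 100 mM Tris, pH 8.0, after 15 min at room temperature, and reported relative to an A647 curve.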
Numbers without * were called inactive; i = inactive; ? = inconclusive; · = not tested or not shown; [ ] = another dose, or the depositor's remark. A portion of the library. The share of hits here may be higher or lower than overall.

SMILES	TSHR ag	AID923	A488 autofl	Resorufin fluor	A647 autofl
O=C(CN1CCN(C2CCCCC2)CC1)NCCC1=CCCCC1	-0.3%	-0.8%	i	i	3.55e-08
NCCCNCCSP(=O)(O)O	5.9%	0.6%	i	i	3.09e-08
O=c1[nH]c(-c2cccnc2)nc2ccccc12	-4.6%	-1.4%	i	i	6.83e-08
COC(=O)CN(C#N)c1nc(SC)nc(N(C)C)n1	0.6%	-0.5%	i	i	9.3e-09
NCC(=O)Nc1ccc(Cl)cc1C(=O)c1ccc[nH]1	27.0%[11.4 µM]	4.8%[11.5 µM]	i	i	4.3e-09
CN(C)C(=O)CN1C(=O)C2CC=C(Cl)CC2C1=O (stereo not drawn)	11.5%	-0.1%	i	i	1e-09
CCC(=O)N1CCc2cc(S(=O)(=O)NC(C(=O)NCc3ccc(C)cc3)C(C)C)ccc21 (stereo not drawn)	-2.0%	0.8%	i	i	3.7e-09
COc1cccc(Cn2c(=O)c(-c3cn(C)c4ccccc34)nc3cnc(OC)nc32)c1	2.2%	18.3%	i	i	3.46e-08
O=C(CC1(O)C(=O)Nc2ccccc21)c1ccc2c(c1)OCO2 (stereo not drawn)	0.8%[11.4 µM]	-0.4%	·	·	·
CN(C)CCNC(=O)c1ccc(Cl)s1	-0.3%	1.4%	i	i	2.36e-08
COc1ccc(N2Cc3cccc(C(=O)O)c3C2=O)cc1	-5.9%	-0.3%	·	·	·
O=C(NCc1ccc(Cl)cc1)C1CCCN(S(=O)(=O)c2cnc[nH]2)C1 (stereo not drawn)	-9.3%	-1.0%	·	·	·
CC(C)(C)N=C1NC(=NC(C)(C)C)c2ccccc21	7.0%	-0.8%	i	i	3.13e-08
CCOC(=O)N1CCN(C(=O)C2CCN(C(=O)c3cc4sccc4n3CC)CC2)CC1	0.8%	1.9%	·	·	·
CC(C)OC(=O)CSc1nc(N)c(C#N)c(-c2cccs2)c1C#N	?	0.0%	·	·	·
COc1ccccc1N1C(=O)CC(Sc2ncccc2C(=O)O)C1=O (stereo not drawn)	1.9%	-2.4%	i	i	2.37e-08
CCn1ncc(C2=NOC(C(=O)Nc3c(C)n(C)n(-c4ccccc4)c3=O)C2)c1C (stereo not drawn)	?	1.2%	·	·	·
CCCC(=O)Nc1nc(-c2ccc3c(c2)OCCO3)cs1	0.9%	4.9%	·	·	·
CCOc1ccccc1C(=O)N1CCC(n2nnc3cc(C)ccc32)CC1	4.1%	-1.0%	i	i	3.03e-08
Cc1ccc(CCN2CC(C(=O)NCCCN3CCOCC3)CC2=O)cc1 (stereo not drawn)	13.3%	-3.3%	i	i	2.18e-08
COc1cc(-c2nc(S(=O)(=O)c3ccc(Cl)cc3)c(N3CCOCC3)o2)cc(OC)c1OC	1.9%	-3.4%	i	i	5.4e-09
CCN(C(=O)CCc1nc(-c2ccc(OC)cc2)no1)c1cc(OC)ccc1OC	?	0.8%	i	i	2.5e-09
Cc1c(C(O)CN2CCN(Cc3ccc4c(c3)OCO4)CC2)c2ccccc2n1C (stereo not drawn)	-25.6%	3.3%	i	i	5.8e-09
COc1ccc2nc(NC(=O)C3CCN(S(=O)(=O)c4cnc[nH]4)CC3)sc2c1	-3.8%	0.5%	i	i	5.3e-09
CCCC(C(=O)NC1CCCC1)N(CCCN1CCOCC1)C(=O)c1snc(C(N)=O)c1N (stereo not drawn)	1.3%	2.9%	i	i	1.2e-09
(cont.)
SMILES	TSHR ag	AID923	A488 autofl	Resorufin fluor	A647 autofl
CCCCCNC(=O)C(C#N)c1nc2ccccc2nc1N1CC(C)OC(C)C1 (stereo not drawn)	·	·	i	i	9.37e-08
O=C(O)CC(NS(=O)(=O)c1ccc(Br)cc1)c1ccco1 (stereo not drawn)	-2.9%	3.7%	i	i	2.9e-09
COc1ccc(OC)c(N(CC(=O)NCc2cccnc2)S(C)(=O)=O)c1	-12.4%	2.3%	i	i	1.1e-09
COc1cc(NC(=O)Nc2cccc(C(C)=O)c2)cc(OC)c1OC	-21.4%	-0.1%	i	i	4.5e-09
O=C(COc1cccc(NC(=O)c2ccco2)c1)c1ccccc1	?	0.1%	i	i	9.6e-09
O=C(CN(C1CC1)S(=O)(=O)c1ccc(S(=O)(=O)NC2CCCCC2)cc1)Nc1ccccc1	?	1.9%	i	i	2.67e-08
COc1ccc(NC(=O)CCN2CCCCC2)cc1	1.5%	2.4%	i	i	5.6e-08
CC(=O)N1CCN(C2c3cccc4cccc(c34)C2NS(=O)(=O)c2ccccc2)CC1 (stereo not drawn)	·	·	i	i	7.67e-08
Cc1ccc(OCc2nc(-c3ccccc3)no2)c(C)c1	?	2.5%	·	·	·
COc1ccc(Nc2oc(COc3ccccc3F)nc2C#N)cc1	7.2%	1.0%	·	·	·
COc1ccc(S(=O)(=O)Nc2ccccc2C(=O)O)cc1	-0.5%	1.8%	·	·	·
CCOC(=O)c1cc2occc2n1CC(=O)N1CCN(C(=O)c2ccco2)CC1	-3.1%	-0.5%	i	i	3.6e-09
Cn1c(SCC(=O)N2CCOCC2)nnc1-c1ccc(Cl)cc1Cl	·	·	i	i	9.9e-09
COC(=O)[C@@H]1O[C@@H](c2c(OC)c(OC)c(C)c(OC)c2OC)[C@H](C)[C@@H](O)[C@@H]1C	1.7%[11.4 µM]	-2.1%[11.5 µM]	·	·	·
COC(=O)/C=c1/sc2nc3ccccc3n2c1=O	-3.0%[11.4 µM]	1.0%	i	i	6.8e-09
CC(/C=C/C=C(C)/C=C/C(=O)O)=C\C=C\C=C(C)\C=C\C=C(C)\C=C\C(=O)O	-0.1%	0.9%	·	·	·
CCC(Sc1nc2ccccc2s1)C(=O)Nc1nnc(C)s1 (stereo not drawn)	?	-0.5%	·	·	·
CCCCCCCCCCCCOCC1CO1 (stereo not drawn)	-6.6%	3.6%	·	·	·
CCOC(=O)c1ccc(NC(=O)Cn2nnc3ccccc32)cc1	·	·	i	i	1e-09
COc1ccccc1CN1CC2(CCN(C(=O)c3cnccn3)CC2)C1	-2.7%	2.8%	i	i	3.9e-09
CCCCCOc1ccc(C(=O)NC(C(=O)O)C(C)C)cc1 (stereo not drawn)	-3.3%	-2.6%	i	i	1e-09
COc1ccc(-c2[nH]ncc2Oc2ccccc2OC)c(O)c1	11.1%	0.0%	i	i	1e-09
CCCCCCn1c(N2CCN(c3ccccc3)CC2)nc2c1c(=O)n(C)c(=O)n2C	12.5%	-0.3%	i	i	3.3e-09
Cn1nnnc1SCC(=O)Nc1ccc(N2CCOCC2)cc1	3.5%	0.6%	i	i	1.67e-08
Cc1ccc(S(=O)(=O)N2CCCC2CO)cc1 (stereo not drawn)	-5.8%[11.4 µM]	0.8%	i	i	8.3e-09
(continued)
SMILES	TSHR ag	AID923	A488 autofl	Resorufin fluor	A647 autofl
CC(=O)N1CCc2cc(S(=O)(=O)Nc3cccc(C(F)(F)F)c3)ccc21	·	2.3%	i	i	1.53e-08
CCc1ccc2nc(NC3=NCN(CCN4CCOCC4)CN3)nc(C)c2c1	-3.1%	1.1%	i	i	1e-09
O=C(Cn1ncc2c(=O)oc3ccccc3c21)N1CCC(N2CCCCC2)CC1	2.6%	1.2%	·	·	·
COc1ccc(C2C(C#N)=C(N)Oc3n[nH]c(C)c32)cc1CN1CCN(c2ccc(F)cc2)CC1 (stereo not drawn)	-38.2%[inhibitor]	0.5%	·	·	·
COc1ccc(COCC(O)CN2CCOCC2)cc1OC (stereo not drawn)	?	1.7%	i	i	1e-09
Cc1ccc(-c2nnn(CC(=O)Nc3ccc(S(=O)(=O)N4CCC(C)CC4)cc3)n2)cc1	-8.0%	-0.2%	i	i	2.8e-09
COc1cccc(-c2nnc(N(C)C(=O)C3CCOC3)s2)c1 (stereo not drawn)	-4.9%	-2.1%	i	i	1e-09
O=C(CSCCO)Nc1cccc(C(F)(F)F)c1	-4.9%	-2.3%	i	i	2.3e-09
Oc1ccc(Cl)cc1Cc1cc(Cl)cc(Cc2cc(Cl)ccc2O)c1O	7.5%[11.4 µM]	-6.2%[11.5 µM]	i	i	1.89e-08
CSc1nc2[nH]c3c(c2c2nnnn12)CCCC3	·	·	i	i	3.14e-08
Cc1noc(C)c1S(=O)(=O)N(CC(=O)O)c1ccc2c(c1)OCO2	-3.8%	1.4%	i	i	1.87e-08
CN(C)S(=O)(=O)c1cccc(C(=O)Nc2cccnc2)c1	-17.7%	1.0%	i	i	1.46e-08
COC(=O)c1ccc(C(NC(=O)OCc2ccccc2)/C(=C/[C@@H](C)C(=O)N(C)C)c2cccnc2)cc1 (stereo partly drawn)	3.5%	0.1%	·	·	·
O=C(CCSCCC(=O)NCCN1CCOCC1)NCCN1CCOCC1	1.4%	-0.5%	i	i	4.57e-08
CN(C)S(=O)(=O)N1CCc2ccccc2C1	1.9%[11.4 µM]	-0.5%	·	·	·
COc1ccc(/C=N/n2cncn2)cc1CSc1ccccn1	·	·	i	i	3.33e-08
CCOC(=O)CNC(=O)CSc1ncnc2c1nnn2-c1ccc(F)cc1	-5.0%	1.7%	·	·	·
COc1ccc(NCc2nnc(SCC(=O)N3CCCc4ccccc43)n2C)cc1	-12.2%	1.6%	i	i	1e-09
O=C(C1CCCN(S(=O)(=O)c2ccccc2)C1)N1CCCc2ccccc21 (stereo not drawn)	?	0.7%	i	i	2.3e-09
O=C1c2[nH]nc(-c3ccccc3O)c2C(c2ccccc2)N1Cc1ccco1 (stereo not drawn)	·	1.3%	i	i	1e-09
CC(C)(C)c1nnc2sc(SCC(=O)N3CCCc4ccccc43)nn2c1=O	0.4%	-0.9%	i	i	3.25e-08
Cc1ccc2c(c1)N(CC(=O)N1CCN(c3nc4ccccc4s3)CC1)C(=O)C(C)O2 (stereo not drawn)	?	-3.2%	i	i	1.41e-08
CCc1nc2cc(Cl)c(Cl)cc2[nH]1	27.2%	0.3%	i	i	3.31e-08
CCOc1ccc(NC(=O)CN2CCN(CC(=O)Nc3ccc4c(c3)OCO4)CC2)cc1	3.8%	1.5%	i	i	4.18e-08
CCCOC(=O)Nc1ccc(C(N)=O)cc1	-7.1%	1.6%	·	·	·
(further entries)
SMILES	TSHR ag	AID923	A488 autofl	Resorufin fluor	A647 autofl
CC(C)NC(=O)c1ccc2c(=O)n(C3CCCC3)c(=S)[nH]c2c1	-8.0%	0.3%	i	i	3.2e-09
CC(C)(C)c1cc(CNC2CS(=O)(=O)C[C@@H]2O)cc(C(C)(C)C)c1O (stereo partly drawn)	-1.9%	1.0%	i	i	6e-09
COC(=O)c1ccc2c(c1)NC(=O)C(N1CCCCC1)S2 (stereo not drawn)	3.2%	-0.1%	i	i	3.39e-08
O=C(O)c1ccccc1C(=O)O	4.3%	-1.8%	·	·	·
Cc1cc(C)c2c(=O)n(-c3ccccc3)[nH]c2n1	-12.6%	-0.3%	i	i	2.13e-08
CC1CCc2cc(F)ccc2N1C(=O)CN1C(=O)c2ccccc2C1=O (stereo not drawn)	-1.0%	-1.2%	i	i	9.8e-09
O=C(CSc1ccc(Cl)cc1)NC1CCCC1	?	-1.1%	·	·	·

Reformatted with bars between the fields: part of the list above
molecule | TSHR ag | AID923 | A488 autofl | Resorufin fluor | A647 autofl
CC(C)NC(=O)c1ccc2c(=O)n(C3CCCC3)c(=S)[nH]c2c1 | -8.0% | 0.3% | i | i | 3.2e-09
CC1CCc2cc(F)ccc2N1C(=O)CN1C(=O)c2ccccc2C1=O (stereo not drawn) | -1.0% | -1.2% | i | i | 9.8e-09
CC(C)(C)c1cc(CNC2CS(=O)(=O)C[C@@H]2O)cc(C(C)(C)C)c1O (stereo partly drawn) | -1.9% | 1.0% | i | i | 6e-09
Cc1cc(C)c2c(=O)n(-c3ccccc3)[nH]c2n1 | -12.6% | -0.3% | i | i | 2.13e-08
O=C(O)c1ccccc1C(=O)O | 4.3% | -1.8% | · | · | ·
